Marburg entry inh: inhibitors of Marburg virus binding or cell entry | Potency, µM (top dose mostly 37.8 µM), inactives show at the highest dose activity change, negative = inhibition, hits mostly inhibitors | Marburg virus pseudotyped entry inhibition, cell reporter; control for the full effect not named in the record; about a third of the inactives were read at about 46 µM | AID 540276 | actives 1.8% (n = 300,000); active = well fitted inhibition curve with a large enough effect; inconclusive = small, poorly fitted or top-dose-only effect, or effect the other way; inactive = flat fitted curve, though single readings scatter; tested in HEK293 cells; about a fifth of its hits are not listed in these tables; further: on the % scale 0 is the no-effect control and ±100 the full control effect; luciferase read-out
2A StopGo: lowers the luciferase signal of an FMDV 2A StopGo reporter; human cells with a luciferase reporter of 2A StopGo recoding; control for the full effect not named in the record; Potency, µM (highest dose often 57.9 µM), for the others: at the highest dose signal change, negative = less light; AID 1159524; actives 1.2% (n = 410,000); active = well fitted falling curve with a large enough effect; inconclusive = small, poorly fitted or top-dose-only effect; inactive = no such curve, though single readings can be large or run the other way; tested in HEK293T cells; further: on the % scale 0 is the no-effect control and ±100 the full control effect; nearly all actives have a fitted effect of over 45% in size; luciferase light after 4 h
Cruzain Triton: inhibitors of Trypanosoma cruzi cruzain with detergent. Potency, µM, for inactives: max response, negative = inhibition, most hits filed as inhibitors. P25779. purified cruzain, Z-FR-AMC fluorescence, 0.01% Triton. actives 0.43% (n = 200,000);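 further: plate controls were neutral wells for no effect and buffer without enzyme for full effect; nearly all actives have a fitted effect of over 40% in size; top concentration of the series not given in the record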
Target sequence (P25779 123-467 limits assumed): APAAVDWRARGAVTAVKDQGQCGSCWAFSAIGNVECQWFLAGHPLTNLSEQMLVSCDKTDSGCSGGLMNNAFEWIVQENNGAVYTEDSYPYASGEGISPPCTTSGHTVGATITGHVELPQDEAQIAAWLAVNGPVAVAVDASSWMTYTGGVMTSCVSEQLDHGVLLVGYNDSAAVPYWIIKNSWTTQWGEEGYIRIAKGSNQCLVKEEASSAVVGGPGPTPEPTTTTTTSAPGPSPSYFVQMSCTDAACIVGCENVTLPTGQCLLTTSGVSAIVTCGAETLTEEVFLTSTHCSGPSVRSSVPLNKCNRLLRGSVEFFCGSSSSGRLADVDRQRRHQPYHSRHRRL
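15 min RT preincubation of 1.5 nM cruzain with compound, then 2 uM Z-FR-AMC added; kinetic AMC fluorescence, 60 s delta. Triton X-100 0.01%, pH 5.5.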
Lassa entry inh: inhibitors of Lassa virus binding or cell entry; Lassa virus pseudotype entry inhibition, cell reporter; control for the full effect not named in the record; Potency, µM (titrated, usually from 37.9 µM), for inactives: at the top dose activity change, negative = inhibition, most hits filed as inhibitors; actives 1.2% (n = 300,000); active means well fitted inhibition curve with a large enough effect; inconclusive means small, poorly fitted or top-dose-only effect, or effect the other way; inactive means flat fitted curve, though single readings scatter; tested in HEK293 cells; further: on the % scale 0 is the no-effect control and ±100 the full control effect; nearly all actives have a fitted effect of over 50% in size; luciferase read-out
SARS PLP yeast: blocks SARS-CoV papain-like protease in a yeast assay; S. cerevisiae expressing SARS-CoV PLpro, growth rescue; control for the full effect not named in the record; Potency, µM (titrated, usually from 32.9 µM), without a hit: top-dose activity, positive = growth rescue; actives 0.19% (n = 330,000); AID 485353; active means well fitted rising curve with a large enough effect; inconclusive means small, poorly fitted or top-dose-only effect; inactive means no such curve, though single readings can be large or run the other way; further: 0% is about no effect; nearly all actives have a fitted effect of over 55% in size; growth read by luminescence after 48 h
Cruzain noTriton: blocks cruzain activity in detergent-free assay; P25779; purified cruzain, Z-FR-AMC fluorescence, no detergent; Potency, µM, without a hit: max response, negative = inhibition, usual class: inhibitors; actives 2.3% (n = 200,000); AID 1476;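 further: plate controls were enzyme without inhibitor for no effect and buffer without enzyme for full effect; nearly all actives have a fitted effect of over 40% in size; top concentration of the series not given in the record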
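Purified cruzain at 1.5 nM, pre-incubated 15 min with compound at room temperature in 100 mM sodium acetate pH 5.5, 5 mM DTT, 0.00005% Triton X-100. Reaction started with 2 uM Z-FR-AMC; AMC fluorescence increase over 60 s gives rate.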
NS1 inh: inhibitors of influenza NS1 protein function | S. cerevisiae slowed by influenza A NS1, growth recovery by OD600 | Potency, µM (titrated, usually from 46.1 µM), for inactives: at the highest dose activity, positive = more growth | actives 0.4% (n = 270,000) | AID 2326; active means well fitted rising curve with a large enough effect; inconclusive means small, poorly fitted or top-dose-only effect; inactive means no such curve, though single readings can be large or run the other way; further: nearly all actives have a fitted effect of over 50% in size
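Compounds were scored for reversing the slow growth caused by influenza A NS1 in S. cerevisiae, measured by optical density at 600 nm. Assay medium contained 2% galactose at pH 6.0; NS1-free yeast of the same strain were the positive control.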
RE007 growth inh: less growth of the S. pombe RE007 Vpr strain. S. pombe RE007 Vpr strain, BacTiter-Glo ATP luminescence, 24 h; control for the full effect not named in the record. Potency, µM (doses to about 92.2 µM), for inactives: top-dose activity change, negative = less growth. actives 0.21% (n = 360,000). AID 651644; active = well fitted falling curve with a large enough effect; inconclusive = small, poorly fitted or top-dose-only effect; inactive = no such curve, though single readings can be large or run the other way;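 further: on the % scale 0 is the no-effect control and ±100 the full control effect; nearly all actives have a fitted effect of over 50% in size; the assay follows cell death caused by Vpr and the record does not say whether a fall means rescue or toxicity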
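Fission yeast RE007 carrying one integrated HIV-1 vpr copy, seeded at OD 0.01 in PMG+AL medium with 23 nL pinned compound. Grown 24 h at 30 degrees; viability read by BacTiter-Glo luminescence after 5 min.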
Starred values were filed as active, the others as inactive; ? = inconclusive; nt = no result given; & = joins results of further samples; [ ] = remark or other dose. Unless noted, the call rests on the fitted dose curve; in most records, active means well fitted curve in the direction sought with a large enough effect; inconclusive means small, poorly fitted or top-dose-only effect, or another doubt; inactive means no such curve, though single readings can be large; an effect the other way counts as inactive or inconclusive. Potency means the concentration at half of the fitted maximal effect.

#	mol	Marburg entry inh	2A StopGo	Cruzain Triton	Lassa entry inh
1	OCCCc1nc2n(n1)C(c1ccccc1)C=C(c1ccc(F)cc1)N2 (stereo not given)	7%	-20%	-5.0%	-1%
2	Cc1ccc(C(=O)NC(=O)CSc2nnc(C)s2)cc1	nt	9%	nt	nt
3	COCCC(=O)Nc1ccc2c(c1)CN(C(=O)c1ccc(CSC)o1)CC2	-5%[46.1 µM]	5%	nt	-17%[46.1 µM]
4	Cn1c(=O)c2c(nc(Oc3ccc4ccccc4c3)n2C)n(C)c1=O	-13%	-17%	-5.3%	6%
5	O=C(O)c1cccc(S(=O)(=O)N2CCC(Cc3ccccc3)CC2)c1	-7%	-12%	nt	-16%
6	CC(=O)C1=C(C)NC(SCC(N)=O)=C(C#N)C1C (stereo not given)	-18%	-15%	2.2%	2%
7	CC1=C2C3OC(=O)C(C)C3CC[C@@]2(C)C=CC1=O (stereo not given in full)	nt	-5%&-16%	4.8%	nt
8	CC(C)(C)c1ccc(-c2nc(SCC(=O)Nc3ccc(Cl)cc3)[nH]c(=O)c2C#N)cc1	?	-17%	16µM*	5%[46.1 µM]

#	SARS PLP yeast	Cruzain noTriton	NS1 inh	RE007 growth inh
1	15%	4%	10%	-13%
2	1%	nt	2%	16%
3	-4%	nt	3%	57%
4	1%	?	9%	17%
5	7%	nt	28%	0%
6	4%	0%	6%	2%
7	2%	3%	0%	5%[18.4 µM]
8	nt	-7%	nt	nt

(further entries)
#	mol	Marburg entry inh	2A StopGo	Cruzain Triton	Lassa entry inh
9	Cc1ccc(NC(=O)c2cc(=O)n(Cc3ccccc3)c(=O)[nH]2)cc1C	?	11%	nt	0%
10	COC(=O)c1[nH]c2ccc(C)cc2c1NS(=O)(=O)c1ccc(F)cc1	?	-29%	-2.1%	?
11	O=C(NCCN1CCN(C(=O)c2cccc(Br)c2)CC1)C(=O)NCc1ccccc1	-13%	-2%	nt	1%
12	Cc1ccccc1NC(=S)N=Nc1c(O)n(C)c2ccc(S(=O)(=O)N3CCOCC3)cc12	?	?	-7.0%	?
13	c1ccc(CSc2ncnc3c2ncn3C2CCCCO2)cc1 (stereo not given)	3%[46.1 µM]	17%	nt	-11%[46.1 µM]
14	CC(C)NC(=O)c1[nH]nc2c1CCc1ccccc1-2	nt	?	nt	nt
15	COc1ccc2cc3cc(C(=O)N4CCN(c5ccccc5)CC4)oc3nc2c1	11%	-20%	-4.3%	-10%
16	CCCCOc1ccc(C2=NC(c3cccs3)=Nc3ccc(OC)cc3N2)cc1	?	-22%	-2.7%	2%[46.1 µM]

#	SARS PLP yeast	Cruzain noTriton	NS1 inh	RE007 growth inh
9	1%	nt	nt	3%
10	7%	-11%	-12%	13%
11	-5%	nt	-22%	-4%
12	4%	?	?	11%
13	nt	nt	nt	?
14	-7%	nt	-7%	-3%
15	-1%	7%	-5%	6%
16	nt	?	nt	nt

Continuation.
#	mol	Marburg entry inh	2A StopGo	Cruzain Triton	Lassa entry inh
17	O=C(/C=C/c1ccco1)N(Cc1cccc(F)c1)C1CCS(=O)(=O)C1 (stereo not given)	nt	-8%	nt	nt
18	O=C(Cn1c(=O)sc2ccccc21)Nc1ccc(S(=O)(=O)N2CCCC2)cc1	1%	-21%	2.8%	7%
19	COCCSc1nnc(NC(=O)CCS(=O)(=O)c2ccccc2)s1	11µM*	-1%	nt	-11%
20	CCCc1noc(-c2ccc(N3CCCCC3)c([N+](=O)[O-])c2)n1	-2%[46.1 µM]	8%	-2.2%	11%[46.1 µM]
21	O=C(Nc1ccc2[nH]ccc2c1)c1ccccc1	6.3µM*	-48%	nt	2.8µM*
22	COc1cccc(-c2nc(-c3ccccc3)nc(N3CCN(C)CC3)c2C#N)c1	?	-15%	nt	?
23	COc1cccc(CC(=O)Nc2nc(C)cs2)c1	?	31%	nt	-26%[46.1 µM]
24	COc1ccccc1C(=O)O/N=C(/C)c1ccc(N2C(=O)C3CCCCC3C2=O)cc1 (stereo not given)	?	-10%	2.7%	2%

#	SARS PLP yeast	Cruzain noTriton	NS1 inh	RE007 growth inh
17	2%	nt	12%	2%
18	1%	-23%	12%	4%
19	1%	nt	12%	-9%
20	nt	12%	nt	nt
21	-2%	nt	2%	-7%
22	0%	nt	nt	0%
23	0%	nt	nt	221%
24	5%	30%	-61%	5%

Following part
#	mol	Marburg entry inh	2A StopGo	Cruzain Triton	Lassa entry inh
25	O=S1(=O)N=CN(Cc2cccc(F)c2)c2ccccc21	19%[46.1 µM]	73%[activator]	5.7%	0%
26	Cc1ccc(C2(C)CC(C)(C)N(C(=O)CSc3nnc(C)s3)c3ccccc32)cc1 (stereo not given)	?	?	-5.6%	7.9µM*
27	CC(C)(C)C(=O)OCc1cc(=O)n2nc(C3CC3)sc2n1	nt	15%	-1.7%	4%[46.1 µM]
28	Nc1nc(SCC(=O)O)[nH]c(=O)c1NC(=O)c1ccccc1F	-1%[46.1 µM]	-10%	nt	3%
29	COc1ccc(NC(=S)NCCc2ccc(F)cc2)c(OC)c1	27%[46.1 µM]	7%	-4.1%	5%
30	O=C(CCC(=O)N1Cc2ccccc2Oc2ncccc21)NCc1ccccc1Cl	nt	7%	-5.3%	23%[46.1 µM]
31	Cc1occc1C(=O)NNC(=O)Cc1ccccc1	16%	nt	-1.0%	10%
32	CCOC(=O)c1ccccc1NC(=O)CSc1nnc(C(C)C)n1CC	-5%	7%	-0.8%	-4%

#	SARS PLP yeast	Cruzain noTriton	NS1 inh	RE007 growth inh
25	9%	-14%	-6%	-21%
26	-47%	20%	12%	7%
27	nt	-2%	nt	nt
28	-2%	nt	nt	-6%
29	9%	-7%	-3%	-4%
30	nt	6%	nt	nt
31	2%	1%	-21%	4%
32	11%	3%	0%	13%

Other structures.
#	mol	Marburg entry inh	2A StopGo	Cruzain Triton	Lassa entry inh
33	COc1ccc(-n2nc(C)c3c(C(F)(F)F)cc(-c4cccnc4)nc32)cc1	2%[46.1 µM]	-8%	1.5%	-5%[46.1 µM]
34	O=c1c2[nH]c3ccccc3c2nc(SCc2cccc(F)c2)n1-c1ccccc1	nt	-24%	-0.7%	?
35	CN(CC(=O)NC(=O)NC1CCCCC1)CC(=O)Nc1ccc(OC(F)(F)F)cc1	-10%	0%	nt	?
36	O=S(=O)(c1ccc2nc(SCc3ccc(Cl)cc3)[nH]c2c1)N1CCOCC1	?	?	-6.2%	?
37	O=C(c1cc(S(=O)(=O)N2CCOCC2)ccc1Cl)N1CCOCC1	-20%	0%	nt	10%
38	COc1ccc(/C=N/Nc2nc(N3CCCC3)nc(N3CCCC3)n2)c(OC)c1OC	?	-29%	-7.0%	1%
39	CCOC(=O)c1c(C)c(C(=O)Nc2ccc(N(C)C)cc2)c(C)n1CC	?	39%[activator]	-0.1%	?
40	CN1C(=O)CC(C(=O)O)SC1=Nc1cc(Cl)cc(Cl)c1 (stereo not given)	-15%	-4%	1.2%	13%

#	SARS PLP yeast	Cruzain noTriton	NS1 inh	RE007 growth inh
33	nt	0%	nt	nt
34	nt	?	nt	nt
35	-4%	nt	nt	4%
36	-1%	-9%	-9%	22%
37	5%	nt	8%	-17%
38	-11%	14%	26%	-1%
39	?	-10%	-20%	-3%
40	-8%	5%	-1%	-16%

(list continues)
#	mol	Marburg entry inh	2A StopGo	Cruzain Triton	Lassa entry inh
41	Cc1c(NC(=O)c2cc3c(s2)CCCC3)c(=O)n(-c2ccccc2)n1C	11%[46.1 µM]	12%	nt	7%[46.1 µM]
42	CCOC(=O)[C@@H]1[C@H]2COc3ccc(Br)cc3[C@H]2N2C(=O)N(c3ccc(Br)cc3)C(=O)[C@]12C	nt	-17%	nt	nt
43	O=C(CN1CCCCC1)N1CCc2ccccc21	-9%[46.1 µM]	-2%	nt	2%[46.1 µM]
44	COc1cc(C)ccc1Oc1nc(-c2ccccc2O)nc2ccccc12	-4%	-28%	nt	12%
45	Cc1ccc(CNC(N)=S)cc1	6%	10%	-1.7%	22%
46	C/C=C/C(=O)OCC(=O)Nc1nc2ccc(C)cc2s1	-27%	26%	0.2%	18%
47	O=C(Cc1cccs1)N/N=C/C(Cl)=C/c1ccccc1	?	34%[activator]	nt	0%
48	CCc1ccc(N2C(=O)CN(Cc3cccs3)C2=S)cc1	-4%	31%[activator]	nt	-2%

#	SARS PLP yeast	Cruzain noTriton	NS1 inh	RE007 growth inh
41	1%	nt	6%	7%
42	0%	nt	12%	-8%
43	19%	nt	13%	-19%
44	0%	nt	2%	-8%
45	10%	-2%	-3%	1%
46	12%	20µM*	14%	10%
47	1%	nt	nt	-3%
48	-5%	nt	nt	37%

New compounds follow
#	mol	Marburg entry inh	2A StopGo	Cruzain Triton	Lassa entry inh
49	Cc1ccsc1/C=N/NC(=O)CO	nt	-10%	nt	nt
50	CCOC(=O)c1cnc(-n2nc(C)cc2C)nc1NCCc1ccccc1	?	?	-3.5%	-26%
51	CCN(CC)S(=O)(=O)c1ccc2oc(Nc3ccc(OC)cc3OC)nc2c1	0%[46.1 µM]	-20%	nt	-9%
52	Cc1cccn2c(=O)c3cc(C(=O)N4CCN(C(=O)c5ccco5)CC4)n(C)c3nc12	?	-18%	-4.6%	-26%
53	CCc1cc(CNC(=O)c2ccc3nc(Cc4ccc(OC)c(OC)c4)oc3c2)on1	nt	-21%	nt	nt

#	SARS PLP yeast	Cruzain noTriton	NS1 inh	RE007 growth inh
49	15%	nt	8%	8%
50	-22%	?	-175%	-5%
51	-6%	nt	7%	0%
52	-4%	-3%	-15%	1%
53	4%	nt	-11%	12%
